Screening data: PubChem, National Center for Advancing Translational Sciences (NCATS)
TRPML1 agonist – activates the human TRPML1 channel | Q9GZU1 | TRPML1-expressing cells, Ca2+ dye fluorescence, FDSS; host cell line not named in the record; reference of the full effect not given here | activation, % (test concentration not listed) | 0.12% of 410,000 active; in the data active = activation above about 50%; inconclusive = about 30% to 50%; inactive = below about 30%; further: 0% is about no effect; the text of the record puts the active cut at 80%
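Kinetic FDSS Ca2+ read in Tet-induced TRPML1-DL cells (ABD Ca8 dye plus quencher, 45-90 min RT loading): baseline, then compound, then 110 s agonist window; EC80 agonist 54-4 at 4uM final added afterwards for a 110 s antagonist window.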
CtBP-E1A blk – CtBP/E1A binding inhibition. 0.49% of 340,000 active. activity change, % (no concentration beside the values). AlphaScreen GST-E1A/His-CtBP binding, 1536-well; stronger effect = lower value; control for the full effect not named in the record; in the data active means activity change below about -65%; inconclusive means about -30% to -65%; inactive means above about -30%; further: on the % scale 0 is the no-effect control and ±100 the full control effect; compound concentration not given in the record
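Protein mix (5X: 125 nM each GST-E1A, His-CtBP) was incubated with pinned compound 2 h at 37 deg C in dark, in 50 mM Tris pH 8.0 buffer with 300 mM NaCl. Glutathione donor and nickel acceptor beads followed; AlphaScreen signal read after 1 h.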
Six1-Eya2 blk – Six1/Eya2 interaction inhibition. Q15475+O00167. AlphaScreen GST-Six1/His-Eya2 binding, biochemical; stronger effect = lower value; control for the full effect not named in the record. activity change, % (no concentration beside the values). 0.56% of 360,000 active; in the data active = activity change below about -65%; inconclusive = about -30% to -65%; inactive = above about -30%; further: on the % scale 0 is the no-effect control and ±100 the full control effect; compound concentration not given in the record
Target sequence (O00167 whole entry, looked up): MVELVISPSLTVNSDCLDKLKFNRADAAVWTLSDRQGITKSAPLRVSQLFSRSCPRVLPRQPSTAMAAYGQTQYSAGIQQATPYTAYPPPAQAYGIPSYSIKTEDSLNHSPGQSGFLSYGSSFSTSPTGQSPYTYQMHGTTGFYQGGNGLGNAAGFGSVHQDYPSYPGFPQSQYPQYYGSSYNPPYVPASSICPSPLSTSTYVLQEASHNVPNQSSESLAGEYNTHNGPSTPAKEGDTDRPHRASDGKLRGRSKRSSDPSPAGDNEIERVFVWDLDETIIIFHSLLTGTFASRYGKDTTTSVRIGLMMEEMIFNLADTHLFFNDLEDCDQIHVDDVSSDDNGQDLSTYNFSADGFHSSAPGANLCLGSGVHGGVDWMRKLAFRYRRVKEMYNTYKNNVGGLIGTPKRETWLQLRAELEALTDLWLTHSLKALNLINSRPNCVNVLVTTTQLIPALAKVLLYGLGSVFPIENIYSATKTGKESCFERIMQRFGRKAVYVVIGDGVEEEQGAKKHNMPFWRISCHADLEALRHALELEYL
Target sequence (Q15475 whole entry, looked up): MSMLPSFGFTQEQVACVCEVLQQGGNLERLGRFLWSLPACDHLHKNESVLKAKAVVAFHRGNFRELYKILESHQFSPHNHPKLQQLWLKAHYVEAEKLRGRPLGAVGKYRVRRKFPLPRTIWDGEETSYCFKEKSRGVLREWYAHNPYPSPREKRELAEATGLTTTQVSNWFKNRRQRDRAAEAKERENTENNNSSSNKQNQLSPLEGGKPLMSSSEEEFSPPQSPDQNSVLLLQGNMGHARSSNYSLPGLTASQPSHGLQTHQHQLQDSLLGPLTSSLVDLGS
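Six1/Eya2 binding was read as AlphaScreen signal after compounds were pinned into GST-Six1 plus His-tagged Eya2 (5X stock 250/500 nM) in pH 8.0 Tris/NaCl/TCEP buffer, beads added, then incubated 1 h, 37 C, dark.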
D2 potentiator – positive allosteric modulators of human D2 dopamine receptor; DiscoveRx D2 beta-arrestin cells, luminescence, 90 min; 100% = 57 uM dopamine signal; potentiation, % (concentration not given with the values); 0.23% of 360,000 active; AID 624464; active = potentiation of 50% or more; inconclusive = 30% to 50%; inactive = 30% or less;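 further: compound concentration not given in the record; tested on top of an EC20 dose of dopamine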
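D2 cells co-treated with compound plus 50 nM dopamine (EC20) for 90 min at 37 deg C to detect potentiation. Beta-arrestin recruitment was read as enzyme-fragment luminescence after 1 h at ambient temperature. Full response was set by 57 uM dopamine.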
D2 agonist – human D2 receptor agonism in beta-arrestin assay | P14416 | DiscoveRx PathHunter D2 beta-arrestin, luminescence, 90 min; 100% = 57 uM dopamine signal | activation, % (no concentration beside the values) | 0.084% of 360,000 active; in the data active = activation above about 40%; inconclusive = about 15% to 40%; inactive = below about 15%; further: compound concentration not given in the record; the text of the record calls up to 30% inactive
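DiscoveRx PathHunter D2 beta-arrestin cells (2,100/well) attached overnight, then compound-stimulated 90 min at 37 C in HBSS/10 mM HEPES/0.1% Tween-20 buffer; beta-galactosidase complementation read by luminescence after 1 h at ambient temperature. Dopamine 57 uM final (EC100) as control.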
PINK1 modulator – changes PINK1 expression; PINK1 immunofluorescence, high-content cytometry, 24 h; Potency, µM (top dose mostly 76.6 µM), for the others: top-dose activation (PINK1 increase), usual class: activators; 0.2% of 410,000 active; AID 624263; active = well fitted activation curve with a large enough effect; inconclusive = small, poorly fitted or top-dose-only effect; inactive = flat fitted curve, though single readings scatter; cell line not stated here;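 further: potency means the concentration at half of the fitted maximal effect; % of control where 0% means no effect; nearly all actives have a fitted effect of over 65% in size; a mitochondrial uncoupler was the plate control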
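PINK1 protein level read as immunofluorescence by microplate cytometer in a fixed, stained stable cell line after 24 h exposure to five compound concentrations, with CCCP as control.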
Active calls of the source: *; ? = inconclusive; . = no result given; & = joins results of further samples; [ ] = remark or other dose. Compounds as they come; 1.3% or so of the library scored in one or more.

structure | TRPML1 agonist | CtBP-E1A blk | Six1-Eya2 blk | D2 potentiator | D2 agonist | PINK1 modulator
COc1cc(C(=O)CSc2nnc(-c3ccc(O)cc3)n2CC2CCCO2)ccc1NC(C)=O (configuration not stated) | -0.4 | 24 | -3 | -24 | 0.0 | -3.7%[38.3 µM]
CCN=C(NC#N)SCc1c(F)cccc1Cl | -1.0 | -12 | 1 | 4 | -1.0 | -1.3%
COc1ccc(Br)cc1CNC(=O)CCc1nc(-c2ccc(C)cc2)no1 | 0.6 | 8 | 3 | -1 | -1.3 | 18%
Cc1ccc2[nH]c3c(c2c1)CCN1C(=O)OC(C)(C)C31C (configuration not stated) | 0.0 | -1 | 50 | -3 | -3.3 | 3.1%
CN(C(=O)c1cccc(NC(=O)Cc2ccc(NC(=O)C3CCCN(C(=O)c4ccccc4)C3)cc2)c1)C1CCCCC1 (configuration not stated) | 1.7 | 7 | 2 | 7 | 2.7 | -1.2%
COc1ccc(Nc2nc(NC(C)C)nc3ccsc23)cc1OC | -1.1 | ? | -10 | -8 | 3.7 | 8.8%
Clc1ccccc1-c1nc(-c2ccncc2)no1 | -0.2&-0.2 | 15&0 | -4&1 | 4&-5 | 2.9&-0.1 | 0.0%&-0.2%
COc1ccc(/C=C(/NC(=O)c2ccccc2)C(=O)N2CCC(C)CC2)cc1 | 0.2 | -12 | 7 | -8 | 0.7 | 3.6%
O=C(NCc1ccc(Cl)cc1)c1ccc(NC(=O)C2CCCO2)cc1 (configuration not stated) | 0.1 | 2 | -2 | -2 | -0.5 | 7.4%
Cc1nc(N/N=C/c2cccc([N+](=O)[O-])c2)cc(N2CCCCC2)n1 | -1.0 | 4 | 1 | 3 | 0.7 | 6.9%
Cc1ccc(C2(CC(=O)N3CCCC3)CCOC(C(C)C)C2)cc1 (configuration not stated) | -0.5 | 3 | -2 | 2 | -0.6 | -0.9%
COc1cc2c(cc1OC)C(c1cccs1)N(C(=O)c1ccc(S(=O)(=O)N(C)C)cc1)CC2 (configuration not stated) | 1.2 | . | -2 | 6 | -1.7 | 1.3%
Cc1ccc(CN2CCNC(=O)C2CC(=O)NCC(F)(F)F)o1 (configuration not stated) | -0.9 | 2 | 11 | -4 | 1.7 | 3.6%
CC(C)(C)c1ccc(C(=O)NCC(=O)OCC(=O)Nc2ccccc2[N+](=O)[O-])cc1 | 3.0 | -4 | -10 | -1 | 0.4 | 2.0%
COCCCNC(=S)Nc1ccc2nc(N3CCOCC3)cc(C)c2c1 | 0.0 | . | 7 | -16 | 5.5 | 1.4%
CCCCOc1ccc(C(C)NC(=O)C2CCCN(S(=O)(=O)CC)C2)cc1 (configuration not stated) | 0.3 | -1 | 6 | -19 | -4.7 | -0.4%
CCN(C[C@H]1N[C@@](CC)(C(=O)OC)[C@H]2C(=O)N(C)C(=O)[C@@H]12)S(=O)(=O)c1ccccc1 | -1.2 | 2 | 4 | 5 | 0.5 | 0.1%
COC(=O)c1sc(-c2ccc(Cl)cc2)cc1NC(=O)COCC(=O)O | -0.7 | . | 0 | -20 | -3.9 | 0.0%
Oc1ccc(/C=N/Nc2ccnc3cc(Cl)ccc23)c(O)c1 | 2.2 | -1 | -4 | -12 | 3.3 | 15%
O=C1OCc2cccc3cccc1c23 | 2.5 | -3 | -2 | -12 | -4.4 | -3.8%[38.3 µM]
Cc1cc(C)nc(SCc2nnc(SCC(=O)Nc3nc(-c4ccccc4)cs3)n2C)n1 | 2.8 | 2 | -27 | 3 | 0.5 | 0.4%
CC(C)C(c1nnnn1Cc1ccc(F)cc1)N1CCN(C(=O)c2ccco2)CC1 (configuration not stated) | -0.2 | 28 | 15 | -1 | -2.2 | 2.2%
Cc1cc(=O)oc2cc(OCCSCCN3CCCCC3)ccc12 | 0.1 | . | -1 | -15 | -11 | -1.0%
COc1ccccc1CNC(=O)c1c(-c2ccccc2Cl)noc1C | 0.2 | 2 | 6 | 4 | 3.6 | 1.1%
CCOc1cc(/C=C2/SC(=S)N(CC(=O)O)C2=O)ccc1OC(=O)c1cccs1 | 0.4 | ? | -19 | -14 | -2.7 | 2.0%
Cc1[nH]n(-c2ccccc2)c(=O)c1S(=O)(=O)c1ccccc1 | 1.6 | -27 | -14 | -12 | -0.3 | 5.9%[38.3 µM]
c1ccc(Cc2nnc(N3CCCCC3)c3ccccc23)cc1 | 10 | -1 | -3 | -5 | -0.6 | 0.2%
Cc1ccc(-c2nn(CC(=O)O)c(=O)c3ccccc23)cc1 | -0.1 | 6 | 5 | -16 | -3.6 | 41%[38.3 µM]
CCNC(=O)c1cc(S(=O)(=O)N(C)C)c(Cl)cc1Cl | -0.3 | . | -2 | -4 | 1.7 | -0.6%
COc1ccc(NC(=O)COc2cc(O)c3c(c2)OC(C)(C)CC3=O)cc1 | . | -2 | 0 | -27 | -4.2 | 0.1%
COc1ccc2cc(CN(CCO)C(=O)c3ccccc3F)c(=O)[nH]c2c1 | -0.1 | -1 | 6 | 2 | 0.6 | -1.3%
O=C(NCc1n[nH]c(=S)n1-c1ccc(Cl)c(Cl)c1)c1ccc(S(=O)(=O)N2CCOCC2)cc1 | 0.2 | . | -3 | -11 | -0.8 | 1.1%
N#Cc1cc2c(nc1SCC(=O)Nc1sc3c(c1C#N)CCC3)CCCCCC2 | 3.1 | -8 | -2 | 5 | -0.8 | 7.5%
O=c1c2ccccc2oc2cc(Br)ccc12 | -0.3 | 12 | 11 | 0 | -1.3 | 0.9%
COc1cc2c(cc1NC(=O)C(C)Sc1ccc(C)cc1)oc1ccccc12 (configuration not stated) | 2.2 | -1 | 7 | 3 | 2.7 | .
O=C(COC(=O)C1(c2ccccc2)CC1)N1CCN(c2ccc(F)cc2)CC1 | 2.2 | 2 | 2 | -11 | -0.7 | -2.1%
CSCCC(NC(=O)c1ccccc1Cl)C(=O)N1CCCCCCC1 (configuration not stated) | 2.9 | 0 | -1 | 2 | 4.5 | 3.7%
O=C(CCNC(=O)OCC1c2ccccc2-c2ccccc21)NOCc1ccccc1 | 0.2 | 9 | 13 | . | 1.8 | -0.2%
Cc1cnc(NC(=O)CSc2ncn(-c3ccccc3)n2)s1 | -0.1 | -7 | -5 | -5 | -1.8 | -1.5%[38.3 µM]
CCOC(=O)c1c(C)[nH]c(C(=O)OCC(=O)Nc2cc(C)ccc2OC)c1C | 3.2 | 3 | 2 | 7 | -0.4 | -0.3%
O=C(Cc1ccccc1)Nc1ccccc1CO | 0.6 | 0 | -1 | -31 | -4.2 | 1.6%
N/C(=N\OC(=O)/C=C/c1ccc(Br)cc1)c1ccccn1 | 8.1 | -13 | -10 | 8 | -0.5 | ?
CCNC(=O)/C(C#N)=C/c1c(N2CCCCCC2)nc2c(C)cccn2c1=O | -1.4 | -3 | -15 | -5 | 2.3 | -2.3%
Cc1ccc(C2Nc3ccccc3NC3=C2C(=O)OC(C)C3)cc1 (configuration not stated) | 0.1 | -21 | 4 | -7 | -6.5 | 0.6%
O=C(NNc1nc(=O)c2cccnc2s1)c1ccccc1O | -0.8 | -15 | ? | 2 | 1.0 | 1.3%
NC(=O)c1cc2ccc(O)cc2oc1=Nc1ccccc1 | 2.4 | 0 | 9 | ? | 5.1 | -1.1%
c1ccc2c(C3=NNC(=NC4CCCCC4)SC3)c[nH]c2c1 | 0.3 | -10 | -16 | -4 | -2.7 | 11%
COc1ccc2[nH]c(C(=O)N/N=C/c3cc(OC)c(OC)c(OC)c3)cc2c1 | 0.0 | . | -14 | 4 | 6.6 | 6.2%
Cc1nc([N+](=O)[O-])cn1CC(=O)c1ccc(F)cc1 | -0.8 | 8 | -3 | -2 | -0.8 | 4.0%
O=C(NCCCN1CCCC1)c1ccc2c(c1)N(Cc1ccc(F)cc1)C(=O)c1ccccc1S2=O (configuration not stated) | 0.1 | -16 | -10 | -48 | 0.8 | 0.8%
O=C(CN1C(=O)COc2ccc(Cl)cc21)Nc1ccc2c(c1)OCCO2 | 1.2 | -7 | -1 | 2 | -0.2 | 0.4%[38.3 µM]
CCOC(=O)[C@@H]1[C@H]2COc3ccccc3[C@@H]2N2C(=O)N(c3ccc(Cl)cc3)C(=O)[C@]12C | -0.6 | 2 | 0 | -12 | -4.5 | 0.3%
COCCN(C(=O)C1CCC1)c1c(N)n(CC(C)C)c(=O)[nH]c1=O | 0.9 | 4 | 5 | -3 | 3.9 | 0.9%
COc1ccc(NC(=O)Cn2c(=O)n(CCC(=O)NCC3CCCO3)c(=O)c3cc(OC)c(OC)cc32)cc1 (configuration not stated) | 0.6&0.5 | 5 | -2 | -11 | -3.9 | 0.0%&-0.8%
O=C(CN1CCN(S(=O)(=O)c2ccc(F)c(F)c2)CC1)Nc1ccccc1C(=O)NC1CC1 | 0.2 | 0 | 3 | -7 | -1.0 | 0.3%
CN(C)CCCNc1nc2cc(-c3cccc(C(F)(F)F)c3)sc2c(=O)n1C | 0.5 | -4 | 8 | -11 | -5.1 | -1.1%

More results:
structure | TRPML1 agonist | CtBP-E1A blk | Six1-Eya2 blk | D2 potentiator | D2 agonist | PINK1 modulator
Cc1cc(NS(=O)(=O)c2ccc(NC(=O)c3cc(-c4ccccc4Cl)nc4ccccc34)cc2)no1 | -0.2 | 3 | 1 | -3 | 0.6 | 1.8%
COc1ccc(-c2cc3nc(C)cc(NCCO)n3n2)cc1 | -0.3 | 8 | -15 | -5 | 1.2 | .
COc1ccc(CC(=O)NNC(=O)c2cnccn2)cc1 | 0.1 | . | -2 | -12 | -9.0 | 1.8%
CCOC(=O)C(C)Oc1cc(Cl)c(C=O)cc1OC (configuration not stated) | -0.5 | 1 | 3 | 0 | -6.8 | 1.5%
COCC(=O)Nc1ccc2c(c1)[C@@H]1C[C@H](CC(=O)NCc3ccccc3)O[C@@H](CO)[C@@H]1O2 | -0.5 | -5 | -4 | 4 | 1.3 | 1.1%
Cc1ccccc1C(=O)NNc1ncnc2c1cnn2C | -0.7 | 1 | 0 | -17 | -2.5 | 2.1%
Cn1nnnc1SCC(=O)Nc1ccccc1N1CCCCC1 | 1.9 | 7 | 7 | -2 | -0.4 | -0.4%
Cc1c(C(=O)O)cccc1-n1c(C)cc(/C=N/NC(=O)c2cc3ccccc3o2)c1C | 0.2 | -6 | -16 | -9 | 1.5 | -1.0%
CCCCn1nnc(NC(=O)c2ccc(-c3ccccc3[N+](=O)[O-])o2)n1 | 3.1 | . | -19 | -7 | -3.9 | -0.9%

In a second layout: 2 of the compounds above.
Cc1cc(NS(=O)(=O)c2ccc(NC(=O)c3cc(-c4ccccc4Cl)nc4ccccc34)cc2)no1
  TRPML1 agonist = -0.2; CtBP-E1A blk = 3; Six1-Eya2 blk = 1; D2 potentiator = -3; D2 agonist = 0.6; PINK1 modulator = 1.8%
COc1ccc(-c2cc3nc(C)cc(NCCO)n3n2)cc1
  TRPML1 agonist = -0.3; CtBP-E1A blk = 8; Six1-Eya2 blk = -15; D2 potentiator = -5; D2 agonist = 1.2; PINK1 modulator = .
